# Assay outcomes as filed in PubChem BioAssay.
# VCAM-1 up imaging = enhancers of VCAM-1 display on endothelial cells, imaging, high-content imaging, pooled HUVEC, TNFa stimulus (AID 457); Pooled HUVEC, TNFa-induced VCAM-1 immunofluorescence imaging; hits of this screen are not shown here; calls only; actives 0.2% (n = 10,000);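 active = a top-ranked rise in VCAM-1 staining upheld on image or statistical review; inactive = the rest, including candidates rejected on review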;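 also: compounds tested at 5 µM in the well; cells exposed to compound for 24 hours before fixing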
# FPRL1 binder = ligands of human FPRL1, also counter-screen for FPR ligands | FPRL1-expressing cells, fluorescent ligand binding inhibition, flow cytometry | actives 0.3% (n = 24,000) | inhibition, %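 (tested at 6.7 µM)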 | P25090;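 also: 0% = buffer alone and 100% = receptor blocker peptide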
# Target sequence (P25090 whole entry, looked up): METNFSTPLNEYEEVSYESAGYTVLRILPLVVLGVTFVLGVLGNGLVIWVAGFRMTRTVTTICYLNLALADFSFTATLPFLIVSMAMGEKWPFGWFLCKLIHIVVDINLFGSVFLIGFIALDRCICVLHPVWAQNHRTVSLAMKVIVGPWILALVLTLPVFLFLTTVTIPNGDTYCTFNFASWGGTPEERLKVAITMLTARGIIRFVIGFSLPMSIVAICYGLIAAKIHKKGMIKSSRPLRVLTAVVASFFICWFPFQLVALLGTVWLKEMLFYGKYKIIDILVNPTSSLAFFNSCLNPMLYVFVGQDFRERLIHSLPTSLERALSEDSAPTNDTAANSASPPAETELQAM
# FPR ligand = ligands of human FPR, also counter-screen for FPRL1 ligands | inhibition, %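 (tested at 6.7 µM)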 | actives 0.74% (n = 24,000) | P21462 | FPR-expressing cells, fluorescent ligand binding, flow cytometry | AID 440;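 also: 0% = buffer wells and 100% = receptor blocker peptide wells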
# Target sequence (P21462 whole entry, looked up): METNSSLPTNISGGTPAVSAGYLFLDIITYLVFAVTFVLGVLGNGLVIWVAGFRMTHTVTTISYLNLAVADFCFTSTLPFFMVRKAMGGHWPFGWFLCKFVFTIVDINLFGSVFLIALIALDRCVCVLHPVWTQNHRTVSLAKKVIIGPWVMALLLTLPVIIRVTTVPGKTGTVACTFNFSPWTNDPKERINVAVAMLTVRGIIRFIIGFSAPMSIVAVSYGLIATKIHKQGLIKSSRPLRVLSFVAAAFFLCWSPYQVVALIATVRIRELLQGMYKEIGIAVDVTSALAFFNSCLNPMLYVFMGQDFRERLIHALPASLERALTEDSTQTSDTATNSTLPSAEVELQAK
# VCAM-1 down = suppression of endothelial VCAM-1 upregulation – cell-based, plate reader, pooled HUVEC, TNFa stimulus (AID 454); HUVEC TNFa-induced VCAM-1 surface immunofluorescence, plate reader; numbers were filed only for top-ranked candidate wells; actives 0.2% (n = 10,000); inhibition, % at 5 µM;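 active = compound among top-ranked inhibitors of TNF-induced VCAM-1 adhesion protein staining, with the hit upheld by image or statistical review; inactive = the rest, including hits rejected on review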;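 also: 0% = TNFa with vehicle and 100% = cells without TNFa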
# VCAM-1 imaging = suppression of endothelial VCAM-1 upregulation – imaging, high-content imaging, pooled HUVEC, TNFa stimulus (AID 456) | HUVEC TNFa-induced VCAM-1 surface expression, immunofluorescence imaging; numbers were filed only for top-ranked candidate wells | inhibition, % at 5 µM, or IC50 in µM where a hit was titrated | actives 0.2% (n = 10,000);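 active = top tenth filtered wells with inhibition above zero that passed visual or statistical confirmation; inactive = the rest, including hits rejected on review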;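 also: 0% = stimulated vehicle wells and 100% = unstimulated cells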
# An asterisk follows results filed as active; i = inactive; · = no result given.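 The calls were made as follows, unless noted: active = mean above 30%; inconclusive = self-fluorescent; inactive = the rest.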
SMILES	VCAM-1 up imaging	FPRL1 binder	FPR ligand	VCAM-1 down	VCAM-1 imaging
O=C1CS/C(=N\C(=O)N2c3ccccc3Sc3ccccc32)N1	i	1	7	i	i
Cc1onc(-c2ccccc2Cl)c1C(=O)Nc1cccc(-c2nc3ncccn3c2C)c1	·	3	6	·	·
Cc1nc(N(C)C)c2sc(=S)n(C)c2n1	·	-2	5	·	·
c1ccc2c(-c3nc(C4CCCCC4)no3)cc(-c3ccncc3)nc2c1	i	-4	-8	i	i
CS(=O)(=O)c1ccc2nc(NC(=O)Oc3ccccc3)sc2c1	·	4	-3	·	·
COc1ccc(-c2nc(CS(=O)(=O)CC(=O)NCCc3cc(OC)ccc3OC)c(C)o2)cc1	·	-2	5	·	·
COc1ccc(-c2cn3cccnc3n2)cc1NC(=O)C1CC1	·	76*	-4	·	·
COc1ccc(CCNS(=O)(=O)c2ccc(C(=O)NCc3ccco3)cc2)cc1OC	i	2	-3	i	i
O=C(NCc1cccs1)c1cnc2ccccn2c1=O	·	-5	0	·	·
CCOC(=O)c1ccc(NC(=O)N2CCN(Cc3cccc(F)c3)CC2)cc1	i	-3	-16	i	i
O=C1c2ccccc2NC(c2ccco2)N1O (centres undefined)	i	-3	1	i	i
Cc1[nH]nc2c1C(C1CC=CCC1)C(C#N)=C(N)O2 (centres undefined)	i	2	-2	i	i
Cn1c(SCC(=O)N2CCN(c3cccc(Cl)c3)CC2)nnc1-c1ccncc1	i	-9	-1	i	i
Cc1nc(CCNS(=O)(=O)c2cccs2)cs1	i	4	1	i	i
O=C(CSc1nnnn1-c1ccccc1)Nc1nc(-c2ccccc2)ns1	·	-7	7	·	·
COCCCNC(=O)C1CCN(C(=O)c2cc3sccc3n2Cc2ccc(F)cc2)CC1	·	1	3	·	·
CCc1ccc(-c2nc(CS(=O)CC(=O)NCc3cccnc3)c(C)o2)cc1 (centres undefined)	·	-8	-2	·	·
Cn1c(=O)c2c(nc(SCC(=O)Nc3ccccc3)n2C)n(C)c1=O	·	-2	-2	·	·
COc1ccc(NC(=O)CCOc2ccccc2)c(OC)c1	·	-7	-6	·	·
O=C(O)c1ccc(S(=O)(=O)NC2CCCc3ccccc32)cc1 (centres undefined)	·	-3	2	·	·
COc1ccc(-c2nnc3ccc(SC(C(C)=O)C(C)=O)nn23)cc1OC	i	5	0	i	i
CCN(CC)c1cc(C)c2cc(NC(=O)CNC(C)=O)ccc2n1	·	10	1	·	·
Cc1ccccc1Cn1c(=O)c2c(nc3n2CCCN3Cc2ccccc2)n(C)c1=O	i	-4	-4	i	i
CCCc1cc(C(=O)Nc2ccccc2C(=O)OC)no1	i	4	-1	i	i
COCCn1c(=NC(=O)CSC(C)=O)sc2cc(F)ccc21	i	-10	-1	i	i
COc1ccc2oc(C)c(C(=O)Cn3ccnc3)c2c1	i	3	-3	i	i
COCCn1c(=O)[nH]c2cc(C(=O)NCCc3ccc(OC)c(OC)c3)ccc2c1=O	·	0	0	·	·
COc1ccc(OC)c(NC(=O)CSc2nc3ccccc3c(=O)n2CCNC(C)=O)c1	i	-5	0	i	i
O=C(Nc1cccc(F)c1)c1ccc2c(c1)OCO2	i	-5	-8	i	i
COc1ccc(N(C)S(=O)(=O)c2ccc3c(c2)CCC(=O)N3)cc1	·	-14	-10	·	·
COCCNC(=O)CSc1nc2cc(OC)c(OC)cc2c(=O)n1Cc1ccc(OC)cc1	·	4	-1	·	·
O=C(Cc1nc2ccccc2s1)c1ccc(O)cc1O	i	-2	-14	i	i
Cc1cc2cc(CNC(=O)c3cccs3)ccc2n1C	·	2	-2	·	·
Cc1oc(-c2ccc(Cl)cc2)nc1CN1CCCC(C(=O)NCCCN2CCCC2=O)C1 (centres undefined)	·	2	2	·	·
CCCCOc1ccc(NC2=NC3(CCCCC3)N=C(N)N2)cc1	·	-2	2	·	·
CCOc1ccc(C2C(C(=O)c3ccco3)=C(O)C(=O)N2Cc2cccnc2)cc1 (centres undefined)	·	5	50*	·	·
CCCCCCC(=O)c1c(C)[nH]c(C(=O)OCC)c1C	i	-1	4	i	i
COc1cccc(C(=O)Nc2cc(NC(=O)c3ccco3)ccc2OC)c1	i	4	2	i	i
O=C(CCn1c(=O)oc2ccccc21)N1CCc2ccccc21	·	5	2	·	·
CCCCCC1CC(CC(=O)O)C(=O)O1 (centres undefined)	i	4	1	i	i
O=C(O)CC1SC(=Nc2cccc(C(F)(F)F)c2)NC1=O (centres undefined)	i	-9	-10	i	i
CC(=O)C1=C(C)OC(N)=C(C#N)C1c1ccncc1 (centres undefined)	i	-2	-1	i	i
N#CC1=C(N)N(c2ccccc2)C2=C(C(=O)CCC2)C1c1ccsc1 (centres undefined)	·	1	0	·	·
Cc1cccc(NS(=O)(=O)c2cc(C(=O)OCC(=O)Nc3cc(C)on3)ccc2C)c1	i	-5	0	i	i
O=C(Cn1cccc1C(=O)c1ccccc1)NCCN1CCOCC1	i	0	-5	i	i
CCC1CCCCN1C(=O)CSc1nc2c([nH]c3ccccc32)c(=O)n1C (centres undefined)	·	-3	4	·	·
CSc1cccc(NS(=O)(=O)c2ccccc2)c1	i	8	6	i	i
Cc1cccc(OCC(=O)N(Cc2cccs2)C2CCS(=O)(=O)C2)c1C (centres undefined)	i	-1	-2	i	i
CCS(=O)(=O)NCCc1cc2c(OC)ccc(OC)c2[nH]c1=O	i	-1	-3	i	i
O=C(CCCn1c(SCC(=O)c2ccc(O)c(O)c2)nc2ccccc2c1=O)NCC1CCCO1 (centres undefined)	·	-4	7	·	·
Cn1c(=O)cc(OCC(=O)N2CCN(c3cccc(C(F)(F)F)c3)CC2)c2ccccc21	i	0	2	i	i
O=C(CCc1nc(-c2ccccc2F)no1)NC1CCCCCC1	·	5	-5	·	·
CCC(C(=O)NC(C)CCc1ccccc1)n1nc(C)n2c(cc3occc32)c1=O (centres undefined)	·	3	1	·	·
CCC(=O)N1Cc2ccccc2-c2ccccc2C1=O	i	-2	3	i	i
COc1cc(C(=O)OC(C)CN2CCCC2)cc(OC)c1OC (centres undefined)	i	-5	-12	i	i
O=C1CC(C2CCCO2)C(=O)N1Cc1ccccc1 (centres undefined)	i	0	-3	i	i
O=C(OCn1nnc2ccccc2c1=O)c1ccc(S(=O)(=O)N2CCOCC2)cc1	·	-8	-4	·	·
Cc1cc(NC(=O)CCC(=O)N(c2cccnc2)C(C(=O)NC2CCCC2)c2ccccc2F)no1 (centres undefined)	i	4	7	i	i
O=C(Nc1ccncc1)C1CCCN(S(=O)(=O)c2cccc3cccnc23)C1 (centres undefined)	i	-2	-4	i	i
COc1cccc(S(=O)(=O)Nc2ccc3sc(C)nc3c2)c1	·	-5	-1	·	·

# (listing goes on)
SMILES	VCAM-1 up imaging	FPRL1 binder	FPR ligand	VCAM-1 down	VCAM-1 imaging
Cc1cc(C)n(-c2cc(N3CCOCC3)nc(-c3ccccc3)n2)n1	i	1	1	i	i
CCN(CC)CCCNC(=O)c1cc(-c2ccc(O)cc2)on1	·	-2	-2	·	·
COCCCNC(=O)c1cc2c(-c3ccc(Cl)cc3)nn(C)c2s1	·	3	-5	·	·
O=C(Nc1ccc2c(c1)OCO2)N1CCN(c2ncccn2)CC1	i	4	-4	i	i
COc1ccccc1NC(=O)c1nnn(CC(=O)Nc2ccccc2)c1N	i	1	-3	i	i
COc1cc(OC)c(C(=O)Nc2ncn[nH]2)cc1OC	i	-1	0	i	i
COc1cccc(-n2nnc3c(=O)n(CC(=O)N4CCCCC4)cnc32)c1	·	-4	-10	·	·
CCN1CCCC(NC(=O)c2scc3c2CCCC3)C1 (centres undefined)	·	1	-7	·	·
O=C(c1ccc2c(=O)n(CC3CCCO3)c(=S)[nH]c2c1)N1CCN(c2ccccc2)CC1 (centres undefined)	·	-7	-5	·	·
CCOC(=O)CSc1nnc(-c2ccc(Cl)cc2Cl)o1	i	1	-4	i	i
Cc1cccc(NC(=O)CCN2CCN(C/C=C/c3ccccc3)CC2)c1	i	-2	6	i	i
O=CN1CCC(=O)N(Cc2ccccc2)c2ccccc21	·	1	-1	·	·

# Some of the entries above in a different format.
> O=C(Nc1ccc2c(c1)OCO2)N1CCN(c2ncccn2)CC1
  VCAM-1 up imaging: i; FPRL1 binder: 4; FPR ligand: -4; VCAM-1 down: i; VCAM-1 imaging: i
> COc1ccccc1NC(=O)c1nnn(CC(=O)Nc2ccccc2)c1N
  VCAM-1 up imaging: i; FPRL1 binder: 1; FPR ligand: -3; VCAM-1 down: i; VCAM-1 imaging: i
> COc1cc(OC)c(C(=O)Nc2ncn[nH]2)cc1OC
  VCAM-1 up imaging: i; FPRL1 binder: -1; FPR ligand: 0; VCAM-1 down: i; VCAM-1 imaging: i
> COc1cccc(-n2nnc3c(=O)n(CC(=O)N4CCCCC4)cnc32)c1
  VCAM-1 up imaging: ·; FPRL1 binder: -4; FPR ligand: -10; VCAM-1 down: ·; VCAM-1 imaging: ·

# (continued)
SMILES	VCAM-1 up imaging	FPRL1 binder	FPR ligand	VCAM-1 down	VCAM-1 imaging
COC(=O)C1=C(C)n2cnnc2NC1c1ccc(Cl)cc1 (centres undefined)	·	-3	0	·	·
O=C1CC(c2ccco2)CC(O)=C1C=NCC1NCCc2ccccc21 (centres undefined)	i	-5	-2	i	i
CC1CCCN(C(=O)CN2C(=O)c3ccccc3C2=O)C1 (centres undefined)	i	4	-4	i	i
Cn1cccc1Cc1nnc(SCC(=O)NC2CCCCC2)n1-c1ccc(F)cc1	·	-4	2	·	·
CCC(=O)N1CCc2cc(S(=O)(=O)NCCCN3CCN(Cc4ccccc4)CC3)ccc21	·	-1	-2	·	·
Cc1cccc(N2CCN(C(=O)c3ccc(CS(=O)(=O)c4ccccc4C)o3)CC2C)c1 (centres undefined)	·	2	4	·	·
Cc1cccc(OCC2=NS(=O)(=O)c3ccccc3N2)c1	·	2	2	·	·
COc1ccc(OC)c(S(=O)(=O)N2CCN(c3c(C)cccc3C)CC2)c1	i	-4	-4	i	i
CC(=O)OC1c2ccccc2C(=O)N1Cc1ccccc1Cl (centres undefined)	i	3	-4	i	i
C=CCNC(=O)C1CCCN(S(C)(=O)=O)C1 (centres undefined)	·	6	0	·	·
CN(C)c1oc(-c2ccccc2Cl)nc1C#N	i	2	3	i	i
COc1ccccc1NC(=O)CCn1c(=O)sc2ccccc21	·	11	-6	·	·

# Profiles, looked up by structure:
# `COc1ccccc1NC(=O)CCn1c(=O)sc2ccccc21` reads VCAM-1 up imaging = ·; FPRL1 binder = 11; FPR ligand = -6; VCAM-1 down = ·; VCAM-1 imaging = ·
# `Cc1cccc(N2CCN(C(=O)c3ccc(CS(=O)(=O)c4ccccc4C)o3)CC2C)c1` (centres undefined) reads VCAM-1 up imaging = ·; FPRL1 binder = 2; FPR ligand = 4; VCAM-1 down = ·; VCAM-1 imaging = ·

# The main list resumes with the three entries that preceded the break.
SMILES	VCAM-1 up imaging	FPRL1 binder	FPR ligand	VCAM-1 down	VCAM-1 imaging
C=CCNC(=O)C1CCCN(S(C)(=O)=O)C1 (centres undefined)	·	6	0	·	·
CN(C)c1oc(-c2ccccc2Cl)nc1C#N	i	2	3	i	i
COc1ccccc1NC(=O)CCn1c(=O)sc2ccccc21	·	11	-6	·	·
NC(CO)C(=O)NNCc1ccc(O)c(O)c1O (centres undefined)	i	1	-2	i	i
CC(=O)N1CCc2cc(S(=O)(=O)NCCCOC(C)C)ccc21	·	-5	6	·	·
CN(C)S(=O)(=O)c1ccc2c(c1)c(=O)c(C(=O)N1CCN(c3ccccn3)CC1)cn2C	·	-2	-4	·	·
Cc1nc(NC(=O)CCC(=O)O)sc1C(=O)N(C)C	·	7	-4	·	·
COCCn1c(CN2CCN(c3cccc(Cl)c3)CC2)nc2c1c(=O)n(C)c(=O)n2C	i	-1	3	i	i
COc1ccc(S(=O)(=O)Cc2ccc(C(=O)NCc3ccc(F)cc3)o2)cc1	·	-6	2	·	·
COc1ccc(NC(=O)C(c2ccc(OC)cc2)N(C)C(=O)c2cnccn2)cc1 (centres undefined)	·	-4	7	·	·
N#Cc1nc(-c2ccc(Cl)cc2)oc1NCCc1ccccn1	i	-1	5	i	i
COc1ccc(Cl)cc1-n1c(=S)sc2c(=O)[nH]c(SCC(=O)NCC3CCCO3)nc21 (centres undefined)	·	-3	44*	·	·

# Some of the compounds tested; count on the stated rates, not on these rows.
